# A1 inh = inhibitors of the anti-apoptotic protein A1, read as caspase activation; MEF A1-2A-BIM cells, Caspase-Glo 3/7 luminescence, 3 h; percent of clofoctol response, vehicle zero; caspase activation, % (test concentration not listed); 330,000 compounds, 0.066% hits;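 active means over half of replicate activation scores above 10%, or exactly half above 10 with the replicate mean above 10; inconclusive means replicate mean below 10 yet half the replicates above 10; inactive means over half of replicates below 10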;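 further: wells of about 30 µL received 50 nL stock; many hits fall short of the cut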
# Ecoli growth = inhibitors of Escherichia coli growth; OD600 absorbance (concentration not given with the values); AID 1053175; OD600, 23 h; active compounds read low; 330,000 compounds, 0.21% hits;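 active means OD600 absorbance below the run mean of sample wells minus 3.6 SD, in any replicate, cut at about 0.56 in these data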;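 further: stock transfer was 300 nL into about 60 µL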
# UCH37 DUB inh = human UCH37 deubiquitinating enzyme inhibition | purified proteasome/UCH37, Ub-AMC cleavage fluorescence | inhibition, % (test concentration not listed) | 330,000 compounds, 0.33% hits;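 active means mean of two replicates above 20%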;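 further: 0% = compound-free wells with enzyme and 100% = wells lacking proteasome; stock transfer was 100 nL into about 20 µL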
# Target sequence (Q9Y5K5 whole entry, looked up): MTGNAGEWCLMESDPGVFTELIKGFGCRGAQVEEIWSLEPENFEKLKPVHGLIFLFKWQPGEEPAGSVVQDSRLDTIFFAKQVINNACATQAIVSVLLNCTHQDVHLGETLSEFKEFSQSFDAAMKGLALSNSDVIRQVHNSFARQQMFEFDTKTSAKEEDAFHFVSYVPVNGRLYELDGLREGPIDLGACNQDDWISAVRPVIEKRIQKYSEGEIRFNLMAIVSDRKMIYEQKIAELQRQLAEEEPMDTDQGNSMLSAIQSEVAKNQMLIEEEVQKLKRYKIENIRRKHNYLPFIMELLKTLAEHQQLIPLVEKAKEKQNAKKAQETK
#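 Signal – fluorescence, ex 355 nm, em 460 nm · System – Proteasome-bound UCH37 · Input – 0.15 nM proteasome as dispensed · Timing – 30 min preincubation with enzyme, 25 min cleavage at room temperature · Read-out basis – percent inhibition of cleavage signal versus uninhibited and no-proteasome wells · Medium – Tris-HCl pH 7.4 with ATP-MgCl2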
# Beta cell apopt = blocks beta cell apoptosis; INS-1E cytokine-induced death, ATP luminescence, 48 h; percent of positive-control rescue, neutral wells zero; 300,000 compounds, 0.8% hits; protection from apoptosis, % (test concentration not listed); AID 435005;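 active means all replicates at 75% or more, or half of them and the mean; inconclusive means half reach 75% but not the mean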;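 further: 0% = cytokine-treated negative control wells and 100% = positive control rescue; higher means more ATP so stronger rescue from cytokine killing; wells of about 40 µL received 100 nL stock; the first replicate is given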
# rRNA inh HTS = inhibits bacterial ribosomal RNA function over humanized ribosomes; E. coli WT GFP vs humanized-ribosome RFP mutants, fluorescence, 24 h; active compounds read low; DMSO median 0, no signal -100; GFP signal change (wild-type ribosome), % (concentration not given with the values); 350,000 compounds, 1.6% hits;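 active means significant combined selectivity score with lowered wild-type GFP, culture density cut under 30%, mutant RFP and density less affected; inactive means any of these conditions unmet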; further: one replicate is shown; some compounds called inactive have numbers as strong as hits
# FGF22 binding = binders of recombinant human FGF22 by thermal shift; Q9HCT0; SYPRO orange fluorescence; percent of sucrose octasulfate shift, DMSO zero; calls only at 9.99 µM; 340,000 compounds, 1.5% hits; AID 651658;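 active means melting point raised past a set limit in the mean and every replicate; inconclusive means no clear call; three in four hits are not shown here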
# Target sequence (Q9HCT0 whole entry, looked up): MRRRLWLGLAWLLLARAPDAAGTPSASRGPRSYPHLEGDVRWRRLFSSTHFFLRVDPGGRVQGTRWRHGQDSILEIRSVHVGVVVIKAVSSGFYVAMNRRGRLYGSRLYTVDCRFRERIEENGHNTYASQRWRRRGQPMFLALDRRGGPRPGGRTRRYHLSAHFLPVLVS
# AF4-AF9 inh = inhibitors of human MLL-AF4/AF9 interaction; inhibition, % at 10 µM; 350,000 compounds, 0.47% hits; AlphaScreen, biotin-AF4 peptide binding to FLAG-AF9; AID 651704; P42568;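 active means every replicate reaching a set inhibition limit, whatever the replicate mean, cut at about 25% in these data; inconclusive means mean inhibition reaches that limit but some replicates miss it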;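 further: 0% = plate neutral control median and 100% = total signal loss; the record names both 10 and 1 µM as test concentration; the first replicate is given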
# Target sequence (P42568 whole entry, looked up): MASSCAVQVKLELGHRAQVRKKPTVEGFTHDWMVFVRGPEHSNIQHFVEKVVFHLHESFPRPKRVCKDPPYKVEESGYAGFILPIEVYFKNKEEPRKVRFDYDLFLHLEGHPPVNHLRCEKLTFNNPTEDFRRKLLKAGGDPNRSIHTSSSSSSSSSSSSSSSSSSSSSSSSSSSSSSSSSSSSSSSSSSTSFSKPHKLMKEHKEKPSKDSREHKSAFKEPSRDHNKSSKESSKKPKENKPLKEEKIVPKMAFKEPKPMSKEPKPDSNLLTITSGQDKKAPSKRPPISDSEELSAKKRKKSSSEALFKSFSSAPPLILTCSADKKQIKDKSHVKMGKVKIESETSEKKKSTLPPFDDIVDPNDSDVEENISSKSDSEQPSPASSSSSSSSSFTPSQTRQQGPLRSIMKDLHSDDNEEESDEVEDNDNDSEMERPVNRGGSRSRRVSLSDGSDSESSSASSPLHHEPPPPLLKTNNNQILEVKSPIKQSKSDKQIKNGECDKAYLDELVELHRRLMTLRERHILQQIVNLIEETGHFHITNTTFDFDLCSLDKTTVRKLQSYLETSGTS
# T cruzi inh = T. cruzi replication inhibition; T. cruzi beta-gal in NIH3T3, luminescence, 90 h; inhibition, % (no concentration beside the values); 300,000 compounds, 1.4% hits;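 active means mean inhibition across valid replicates above about 55%, limit read from the data; inconclusive means mean below that limit but half or more replicates reach it; inactive means mean below it, under half of replicates reach it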;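 further: signal also drops with host cell toxicity which is not excluded here; 0% = plate median of DMSO wells and 100% = zero luminescence signal; higher percent means less beta-gal luminescence so fewer parasites; stock transfer was 50 nL into about 50 µL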
# rRNA inh HTS OD600 = second read-out of rRNA inh HTS, no call of its own (marks repeat the call); OD600 change, %; measured here: OD600 growth;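 optical density of the mix in the first replicate; 0 = DMSO median and -100 = no signal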
# rRNA inh HTS RFP = further read-out of rRNA inh HTS, marked with its call; RFP signal change, %; measured here: RFP humanized mutant strains;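 first replicate; 0 = DMSO median and -100 = no signal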
# Starred values were filed as active, the others as inactive; i = inactive; ? = inconclusive; . = no result given; + = active, no number. An excerpt. The share of hits here may be higher or lower than overall.
SMILES,A1 inh,Ecoli growth,UCH37 DUB inh,Beta cell apopt,rRNA inh HTS,rRNA inh HTS OD600,rRNA inh HTS RFP,FGF22 binding,AF4-AF9 inh,T cruzi inh
CCOC(=O)N1CCC(N(C(=O)Nc2ccc(Cl)c(Cl)c2)C(C)CC)CC1 (stereo not given),0.0,0.69,2.1,3,.,.,.,.,.,15
C=CCC(Nc1ccco1)c1ccccc1 (stereo not given),0.8,0.7,1.6,-2,.,.,.,.,.,1
CCn1c(CCNC(=O)c2ccc(OC)c(OC)c2)nc2ccccc21,1.1,0.69,1.8,3,.,.,.,.,.,-10
Cc1ccc(C2=NN(S(C)(=O)=O)C(c3cccs3)C2)cc1 (stereo not given),0.1,0.62,4.9,-3,.,.,.,.,.,-8
O=C(O)Cn1cc(F)c(=O)[nH]c1=O,0.1,0.76,3.5,-3,.,.,.,.,.,-4
CC(C)C[C@@H](CN(C)N=O)N(C[C@H](Cc1ccccc1)N(CCc1ccccc1)N=O)N=O,-1.5,.,0.0,8,8,-6,-1.0,+,-7.7,29
CC(OC(=O)c1ccc(Cl)cc1)C(=O)NCC1CCCCC1 (stereo not given),0.9,0.66,-1.4,-3,.,.,.,i,-1.4,.
COc1nnc(-c2ccc(N3CCOCC3)c(NC(C)=O)c2)c2ccccc12,0.4,0.67,2.1,-4,.,.,.,.,.,4
O=C(CSc1nnc(Nc2ccccc2F)s1)NC1CCS(=O)(=O)C1 (stereo not given),0.7,0.66,3.3,-1,.,.,.,i,-5.8,.
CSc1ccccc1NC(=O)C(C)N(C)CC(=O)N1CCN(Cc2ccccc2)CC1 (stereo not given),.,0.68,0.1,.,-3,7,0.1,i,0.0,.
CC1CCN(S(=O)(=O)c2cccc(C(=O)Nc3nccs3)c2)CC1,0.3,0.68,-0.1,-1,-24,-21,5.0,i,6.2,-1
CC(=O)Nc1ccc(NC(=O)CSc2ncc(C(=O)Nc3ccccc3)c(=O)n2C)cc1,-5.8,0.69,-9.6,-12,0,11,-1.5,i,8.3,-15
Cc1ccc(OC(=O)c2cccc(S(=O)(=O)N(C)C)c2)c(-n2nc3ccccc3n2)c1,-7.6,0.71,3.0,-5,.,.,.,.,.,.
CCOc1ccc(CN(C(=O)c2cccs2)C2CCS(=O)(=O)C2)cc1 (stereo not given),0.8,0.68,3.7,-3,.,.,.,i,0.6,-6
CC(=O)NNc1cccc(Cl)n1,2.9,0.79,1.9,-2,.,.,.,.,.,-21
O=C(/C=C/c1ccccc1)N/C(=C\c1ccco1)C(=O)NCCO,-0.3,0.74,3.7,-11,.,.,.,.,.,-3
Nc1c(O)ccc2c1C(=O)c1ccccc1C2=O,-6.3,0.76,9.8,17,-56*,-44*,16*,i,20,53
COc1ccc(S(=O)(=O)N(C)CC(=O)N2CCC(C)CC2)cc1Cl,1.3,0.71,4.1,-4,-6,-11,4.7,i,-42,-8
Nc1ccccc1-c1ccc(Cl)cc1,.,0.65,-2.9,.,.,.,.,i,-2.3,.
CCOC(=O)C1CCN(C(=O)c2ccc(OC3CCN(C(=O)COC)CC3)cc2)CC1,.,0.65,1.6,.,11,12,2.4,i,-0.6,-7
CC(=O)c1cccc(NC(=O)Nc2ccc(C)cc2)c1,1.2,0.69,-0.9,-3,.,.,.,.,.,17
CC(C)C(NC(=O)c1ccccc1)c1nnc(SCC(=O)Nc2nccs2)n1C (stereo not given),0.0,0.67,1.9,-18,.,.,.,.,.,1
CC1CCC(C(C)C)C2=C1C(C#N)(C#N)C(C#N)(C#N)C(c1ccccc1)N2 (stereo not given),-0.4,0.71,-8.0,-8,.,.,.,.,.,-11
N#Cc1cc2c(nc1SCc1ccncc1)CCC2,-2.3,0.68,-1.3,-5,-3,-7,-1.4,.,2.0,28
COc1ccc(C)cc1-n1nnnc1SC(C)C(=O)NC1CCCC1 (stereo not given),0.0,0.69,1.1,4,-4,-4,1.8,i,2.2,.

# Continued:
SMILES,A1 inh,Ecoli growth,UCH37 DUB inh,Beta cell apopt,rRNA inh HTS,rRNA inh HTS OD600,rRNA inh HTS RFP,FGF22 binding,AF4-AF9 inh,T cruzi inh
COc1cc(C2C3C(=O)N(Cc4ccccc4)C(=O)C3ON2c2ccccc2)cc(OC)c1O (stereo not given),-0.4,0.79,3.2,3,.,.,.,.,.,4
Cc1ccc(Nc2nnc(SCC(=O)Nc3ccc(S(=O)(=O)N4CCOCC4)cc3)s2)cc1,0.2,0.67,4.9,-9,.,.,.,.,.,1
CCc1ccccc1N1C(=O)c2cccc3c(N4CCOCC4)c([N+](=O)[O-])cc(c23)C1=O,0.7,0.65,5.0,1,0,-17,10,i,9.8,24
Nc1nc2n(n1)C(c1ccco1)CC(c1ccc(F)cc1)N2 (stereo not given),0.2,0.73,-1.6,-3,3,4,-2.7,i,-0.5,-7
O=C(NCCc1ccccn1)c1cccc(S(=O)(=O)N2CCc3ccccc32)c1,0.9,0.71,2.1,1,-18*,-1.8*,-0.8*,i,0.5,11
Cc1cccnc1NC(=O)Cn1nc(C)c([N+](=O)[O-])c1C,1.3,0.7,0.3,-5,.,.,.,.,.,-8
COc1ccccc1-n1c(-c2ccco2)n[nH]c1=S,0.1,0.68,-1.9,-13,6,9,-1.3,i,-5.3,-3
O=C(NC(=S)Nc1ccc(Br)cc1)C1CCCCC1,1.4,0.75,-1.2,.,4,16,-0.8,i,-0.3,2
CCc1cc2cc(C(=O)N3CCN(c4ccccc4)CC3)sc2s1,-0.1,0.74,3.8,-4,.,.,.,.,.,2
CCc1ccc(S(=O)(=O)NCc2csc(C)n2)s1,0.2,0.67,-1.3,-6,7,3,1.2,i,-43,-11
Cc1cc(C(=O)CSc2nnc(-c3ccc(Cl)cc3)n2C)c(C)n1CC1CCCO1 (stereo not given),0.3,0.69,4.6,-7,.,.,.,.,.,6
CSc1nc(-c2ccccc2)nc(NC(=O)C(C)C)c1C(C)=O,-0.1,0.68,5.9,0,7,17,11,i,-21,5
COCCN(CC(=O)Nc1ccccc1C(F)(F)F)C(=O)/C=C/c1cc(Cl)c2c(c1)OCCO2,.,0.68,1.4,.,7,6,-0.8,i,-0.5,.
CCCCn1c(N)c(N(CC(C)C)C(=O)c2cc(Cl)nc3ccccc23)c(=O)[nH]c1=O,1.3,0.71,-2.5,-3,15,12,3.1,i,-1.7,-1
CCOc1ccc(-n2c(SCC(=O)O)nc3sc4c(c3c2=O)CCCC4)cc1,-0.2,0.66,4.9,1,-22,-45,-0.5,i,-3.1,0
CC(C)N(C(=O)[C@H]1C[C@H](CC(=O)NCc2cccc(C(F)(F)F)c2)C(=O)N2CCc3c([nH]c4cc(-c5ccco5)ccc34)[C@]12C)C(C)C,.,0.72,-13,.,17,12,40,i,1.9,.
CCc1cc(=O)oc2c(CN3CCN(C)CC3)c(O)c(Cl)cc12,0.1,0.68,i,-4,.,.,.,.,.,-13
O=C(Nc1cccc(OCC(=O)N2CCOCC2)c1)C1CCCCC1,-0.3,0.64,3.6,0,.,.,.,.,.,-11
CCCN1CCC(NC(=S)Nc2ccc(C(=O)OCC)cc2)CC1,-0.4,0.67,-1.9,-2,4,20,-4.8,i,1.3,-13
CN(c1cccc(Cl)c1)S(=O)(=O)c1cccc(C(=O)Nc2ccc3c(c2)CCC3)c1,0.2,0.69,1.1,-3,-4,2,4.1,i,-1.6,-13
O=C(NCCc1ccc(Cl)cc1)C1CC(=O)N(CCc2ccccc2)C1 (stereo not given),0.3,0.68,1.7,-5,-5,-8,-1.0,i,-6.8,-8
COc1ccc(-c2cn[nH]c2-c2ccc(OCc3ccccc3)cc2O)cc1,1.1,0.7,7.5,-11,-20,-30,6.4,i,1.4,17
CCOc1ccc(-c2c(C(=O)N/N=C/c3ccco3)nnn2-c2nonc2N)cc1,0.2,.,.,-2,5,1,1.9,i,0.9,-7
CC(=O)Nc1ccc2nc(NC(=O)c3cccnc3)sc2c1,-4.7,0.67,-2.1,-5,32,22,3.1,i,-2.1,-3
CC(C)C(=O)Nc1ccc(NC(=O)c2ccco2)cn1,0.2,0.71,5.1,-12,.,.,.,.,.,-5

# Next section, starting with the last six of the part before.
SMILES,A1 inh,Ecoli growth,UCH37 DUB inh,Beta cell apopt,rRNA inh HTS,rRNA inh HTS OD600,rRNA inh HTS RFP,FGF22 binding,AF4-AF9 inh,T cruzi inh
CN(c1cccc(Cl)c1)S(=O)(=O)c1cccc(C(=O)Nc2ccc3c(c2)CCC3)c1,0.2,0.69,1.1,-3,-4,2,4.1,i,-1.6,-13
O=C(NCCc1ccc(Cl)cc1)C1CC(=O)N(CCc2ccccc2)C1 (stereo not given),0.3,0.68,1.7,-5,-5,-8,-1.0,i,-6.8,-8
COc1ccc(-c2cn[nH]c2-c2ccc(OCc3ccccc3)cc2O)cc1,1.1,0.7,7.5,-11,-20,-30,6.4,i,1.4,17
CCOc1ccc(-c2c(C(=O)N/N=C/c3ccco3)nnn2-c2nonc2N)cc1,0.2,.,.,-2,5,1,1.9,i,0.9,-7
CC(=O)Nc1ccc2nc(NC(=O)c3cccnc3)sc2c1,-4.7,0.67,-2.1,-5,32,22,3.1,i,-2.1,-3
CC(C)C(=O)Nc1ccc(NC(=O)c2ccco2)cn1,0.2,0.71,5.1,-12,.,.,.,.,.,-5
CC1CCCC(NC(=O)COC(=O)c2ccc([N+](=O)[O-])s2)C1C (stereo not given),0.3,0.68,78*,1,6,6,2.5,i,-6.9,.
COC(=O)[C@@H]1CC[C@@](C)(c2ccc(OC)cc2)C1(C)C,-1.6,.,0.1,-1,8,17,-1.6,i,-1.4,-3
COc1cc(C(=O)Nc2ccc(S(=O)(=O)Nc3cnc4ccccc4n3)cc2)cc(OC)c1OC,-0.6,0.69,-10,.,-29,-59,-3.4,i,-0.7,-25
Cc1ccc(C(=O)N2CCN(c3ccccc3)CC2)cc1S(=O)(=O)N1CCCC1,-1.0,0.7,2.2,1,.,.,.,.,.,12
CC(C)N1CCC(N2CCN(C3CCCCC3)CC2CCO)CC1 (stereo not given),-0.1,0.65,-1.8,-1,20,13,1.0,.,-0.7,9
O=C(COC(=O)c1ccccc1O)Nc1cccc(S(=O)(=O)NC2=NCCCCC2)c1,-0.3,0.7,0.9,0,-2,-10,1.4,i,0.0,-1
Nc1nnc(SC2CC(=O)N(c3ccccc3)C2=O)s1 (stereo not given),0.9,0.72,1.7,0,.,.,.,.,.,28
CCOC(=O)C1CCCN(C(=O)C(=O)c2cn(CC(=O)N3CCOCC3)c3ccccc23)C1 (stereo not given),1.7,0.73,6.3,-3,12,13,1.1,i,-2.4,-10
CC(C)C[C@H](NC(=O)c1nc[nH]c1C(=O)NCc1ccc(CNC(=O)OC(C)(C)C)cc1)C(=O)OC(C)(C)C,?,.,1.4,5,10,-5,16,i,2.1,28
CCOc1ccccc1OCC(=O)OCC(=O)NNC(=O)c1ccc([N+](=O)[O-])cc1,0.2,0.71,4.3,-3,7,4,-0.8,i,-1.4,-9

# Screening data as filed in PubChem BioAssay.
